High-throughput results (PubChem BioAssay)
ClpP mod: qHTS Assay for Activators of ClpP. purified B. subtilis ClpP, FRET peptide cleavage, 20 min. 340,000 compounds, 1.9% hits. ATP-dependent Clp protease proteolytic subunit (Bacillus subtilis (strain 168)), P80244. Potency, µM (series often up to 57.5 µM), for the others: at the highest dose activity change, negative = active; active = well fitted falling curve with a large enough effect; inconclusive = small, poorly fitted or top-dose-only effect; inactive = no such curve, though single readings can be large or run the other way; also: potency is read from the fitted curve at half-maximal effect; the source files actives as falling curves though it sought activators and does not explain the sign; nearly all actives have a fitted effect of over 65% in size; many hits overshoot -100%
Target sequence (P80244 whole entry, looked up): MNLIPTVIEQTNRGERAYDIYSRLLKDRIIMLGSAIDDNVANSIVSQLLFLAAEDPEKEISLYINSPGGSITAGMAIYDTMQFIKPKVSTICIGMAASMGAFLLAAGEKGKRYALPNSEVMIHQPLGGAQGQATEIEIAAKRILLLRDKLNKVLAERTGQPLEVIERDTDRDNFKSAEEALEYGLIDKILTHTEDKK
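ClpP 10 microg/mL final, pH 8 Tris/KCl buffer with BSA, glycerol, Tween-20; compound pinned in; FRET-FV substrate; RT 20 min; Ex320/Em430; ΔFRET vs ADEP 5.8 microM, DMSO, no enzyme.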
Menin-MLL FL inh: menin-MLL binding inhibition, fluorescein peptide. 290,000 tested, under 10 active. FP activity change, % at 61.4 µM. Fluorescence polarization, fluorescein-MLL peptide displacement from menin; inconclusive = falling polarisation curve, or a change in total fluorescence; inactive = total fluorescence flat and polarisation flat or rising; no compound was filed as active; the % refers to the polarisation; negative = inhibition;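 also: % of control where 0% means no effect; inhibitors lower the polarisation; unlabelled MLL peptide was the positive control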
gsp antagonist: antagonizes gsp, the McCune-Albright syndrome mutation | gsp-mutant cells, cAMP HTRF, 30 min; control for the full effect not named in the record | Potency, µM (doses to about 76.9 µM), for the others: top-dose activity change, negative = inhibition, usual class: inhibitors | 340,000 compounds, 0.4% hits; active = falling curve of any shape with a large fitted effect; inconclusive = falling curve, mostly with a smaller effect; inactive = flat or rising curve; cell line not stated here;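 also: intracellular cAMP measured with PDE inhibitor Ro 20-1724 present during compound exposure; potency is read from the fitted curve at half-maximal effect; % is scaled to controls: 0 for no effect and ±100 for the full control effect; nearly all actives have a fitted effect of over 65% in size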
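Cells, 2000/well, grown 16–24 h in DMEM 10% FBS with 0.5 mg/ml G418, then compounds plus […] (300 uM addition stock), 30 min at 37C. cAMP read by HTRF (cAMP-d2 and anti-cAMP antibody-K in lysis buffer) after 30 min RT.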
gsp agonist: agonists of gsp mutant (McCune-Albright syndrome); gsp mutant cells, cAMP HTRF, 30 min; control for the full effect not named in the record; Potency, µM (doses to about 76.9 µM), without a hit: top-dose activation (cAMP increase), hits mostly activators; 340,000 compounds, 0.13% hits; AID 624287; active = well fitted activation curve with a large enough effect; inconclusive = small, poorly fitted or top-dose-only effect, or another doubt; inactive = no such curve, though single readings can be large or run the other way; cell line not stated here;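 also: phosphodiesterase inhibitor Ro 20-1724 added with compounds to block cAMP breakdown; potency is read from the fitted curve at half-maximal effect; nearly all actives have a fitted effect of over 60% in size; about a fifth of the inactives were tested at one dose only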
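Cells stably selected in G418 were plated at 2000/well, grown 16-24 hr, then given compounds in DMSO with the PDE inhibitor […] (300 uM solution added) for 30 min at 37C; cAMP was read by HTRF.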
TRPML1 ag: human mucolipin-1 channel agonism. TRPML1-expressing cells, Ca2+ dye fluorescence, FDSS; host cell line not named in the record; reference of the full effect not given here. activation, % (no concentration beside the values). 410,000 compounds, 0.12% hits. AID 624414; in the data active = activation above about 50%; inconclusive = about 30% to 50%; inactive = below about 30%; also: 0% is about no effect; the text of the record puts the active cut at 80%
Target sequence (Q9GZU1 whole entry, looked up): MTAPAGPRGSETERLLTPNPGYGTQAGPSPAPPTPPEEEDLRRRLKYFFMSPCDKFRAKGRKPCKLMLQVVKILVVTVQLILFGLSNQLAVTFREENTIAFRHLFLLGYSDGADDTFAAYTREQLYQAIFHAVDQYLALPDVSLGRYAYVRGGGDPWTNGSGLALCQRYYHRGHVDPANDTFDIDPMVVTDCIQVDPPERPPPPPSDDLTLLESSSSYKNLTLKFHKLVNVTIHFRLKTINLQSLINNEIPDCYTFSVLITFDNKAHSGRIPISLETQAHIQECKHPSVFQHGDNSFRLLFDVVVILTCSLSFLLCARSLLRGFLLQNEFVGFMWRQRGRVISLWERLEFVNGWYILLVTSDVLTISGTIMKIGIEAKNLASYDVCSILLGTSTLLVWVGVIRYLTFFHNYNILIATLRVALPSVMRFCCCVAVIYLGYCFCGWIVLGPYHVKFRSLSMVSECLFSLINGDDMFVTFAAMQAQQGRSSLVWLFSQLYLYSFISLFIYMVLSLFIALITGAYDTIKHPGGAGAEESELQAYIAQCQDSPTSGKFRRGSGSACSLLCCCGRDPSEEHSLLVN
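Agonist activity was taken from a 110 s kinetic Ca2+ dye read on the FDSS after pinning compounds onto TRPML1-DL cells. The cells were seeded at 1,500/well with Tet inducer, incubated about 16 h, then dye-loaded at room temperature.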
TRPML1 inh: inhibitors of human TRPML1 channel. TRPML1-inducible cells, Ca2+ dye fluorescence, FDSS; stronger effect = lower value; inhibition of EC80 agonist-evoked calcium signal. activity change, negative = inhibition, % (concentration not given with the values). Q9GZU1. 390,000 compounds, 0.02% hits. AID 624415; in the data active means activity change below about -50%; inconclusive means about -30% to -50%; inactive means above about -30%;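 also: stimulus is agonist 54-4 at its EC80 concentration; % is scaled to controls: 0 for no effect and ±100 for the full control effect; the text of the record puts the active cut at -80%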
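Calcium fluorescence in TRPML1-DL cells induced overnight with Tet: a 110 s read after compound pin addition, then a 110 s antagonist read after challenge with 54-4 at 4 uM final (EC80).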
* hit, by the source's call; ? = inconclusive; . = no result given; [ ] = dose if it differs, or a comment.

mol | ClpP mod | Menin-MLL FL inh | gsp antagonist | gsp agonist | TRPML1 ag | TRPML1 inh
O=C(Nc1ccc(F)c(F)c1)c1ccccc1 | 0.3% | . | 12% | -7% | -0.4 | 5
COc1ccc(Cn2c(=O)n(Cc3ccco3)c(=O)c3oc4ccccc4c32)cc1 | -14% | . | . | . | -0.2 | 12
O=C(Nc1ccccc1N1CCOCC1)c1ccc([N+](=O)[O-])o1 | 0.5% | . | 4% | 14%[15.4 µM] | -0.1 | 11
Cc1cccc(C(=O)NN2C(=O)C3C(c4ccccc4)C=CC(c4ccccc4)C3C2=O)c1 (stereo unspecified) | -4.0% | -2.7 | -4% | 10% | 1.6 | -7
Cc1ccc(CN(C(=O)c2csnn2)C(C(=O)NC2CCCC2)c2ccco2)cc1 (stereo unspecified) | . | 3.9 | -1% | ? | 1.0 | 0
O=C(COC(=O)c1cc([N+](=O)[O-])ccc1N1CCOCC1)NC1CCCCC1 | 1.0% | . | 5% | 15% | -0.7 | 12
O=S(=O)(Nc1ccccc1)c1ccc(F)cc1 | 2.3% | -0.3 | 2% | -24% | 0.3 | 3
COc1cc2c(cc1OC)CN(C(=O)/C=C/c1ccc(F)cc1)CC2 | . | -10 | -20% | 6% | 0.8 | -2
Cc1ccc(S(=O)(=O)N(C)CC(=O)O/N=C(\N)c2ccc([N+](=O)[O-])cc2)cc1 | -1.5% | 0.5 | -19% | -28% | -0.5 | -3
CCCN(CC1CC1)C(=O)CSc1nnc(-c2cc(-c3cccs3)nc3ccccc23)o1 | 25µM* | 4.2 | -20% | 26% | 0.1 | 24
CCCCN1C(=O)/C(=C2/C=CC=CN2C)SC1=S | 1.4% | -0.1 | -18% | -50% | -0.5 | -6
O=C(CCN1C(=O)c2ccccc2C1=O)Nc1sc2c(c1C(=O)NCC1CCCO1)CCC2 (stereo unspecified) | 3.1% | 7.0 | 17% | 4% | 2.1 | -5
Cc1c(Cl)cccc1NC(=O)Cn1c(=O)cc(C)c2c(C)nn(-c3cccc(F)c3)c21 | -19% | . | . | . | 1.1 | 23
Cc1cnc(C(=O)OCC(=O)Nc2cccc(Cl)c2)cn1 | -0.2% | 5.5 | -2% | -32%[inhibitor] | 0.6 | 0
CC(Oc1ccccc1F)C(=O)NNC(=O)CCNC(=O)c1ccco1 (stereo unspecified) | -3.2% | . | -10% | -16% | 0.1 | 0
O=C(CCCc1c[nH]c2ccccc12)NCCc1c[nH]c2ccccc12 | . | 7.3 | . | 0%[15.4 µM] | 0.4 | -20
N#CC1=C(N)Oc2cc(O)c(C=Nc3ccccc3)cc2C1c1ccccc1 (stereo unspecified) | -2.7% | 28 | -34% | -3% | 2.4 | 21
CN(CC1CCCO1)S(=O)(=O)c1ccc(C(=O)Nc2nc3cc4c(cc3s2)OCO4)cc1 (stereo unspecified) | 4.0% | 0.8 | 2% | ? | -0.5 | 34
Cc1ccccc1CCNC(=O)c1ccc2c(c1)nc1n2CCCCC1 | 0.2% | . | . | . | 1.6 | -15
COc1ccc(N2CCN(c3cc(C)c4ccc(O)cc4n3)CC2)cc1 | -8.7% | 5.9 | -5% | 4% | -1.3 | 41
COc1cccc(N2CCN(C3CC(=O)N(c4cccc(Cl)c4)C3=O)CC2)c1 (stereo unspecified) | -1.6% | 1.2 | 0% | 6% | 0.0 | 30
CN1C=CC=C/C1=C1\SC(=S)N(CC(=O)O)C1=O | . | 22 | -8% | -3% | 0.6 | 9
Cc1cc(/C=C(\C#N)C(=O)OCC(=O)Nc2ccc(OC(F)F)cc2)c(C)n1CC(C)C | -2.0% | 19 | 11% | 15% | 2.2 | 8
CC(=O)c1cccc(NC(=O)CSc2ccc(-c3ccccn3)nn2)c1 | -2.1% | 0.1 | 0% | 20% | 0.0 | -3
CCc1nn(CC(=O)NCc2ccccc2Cl)c(=O)c2cc3ccccc3n12 | -14% | . | . | . | -0.9 | 4
O=C(NCc1cccnc1)c1ccc(NS(=O)(=O)c2ccc(F)cc2)cc1 | 0.9% | . | 6% | 1% | -0.3 | 16
CC(=O)Oc1ccc(C(=O)Nc2cc(NC(=O)c3ccc(OC(C)=O)cc3)cc(C(=O)NC(C)(C)C)c2)cc1 | 0.7% | 4.8 | 10% | 1% | 0.6 | -1
CCOc1ccc(NC(=O)C2CCN(S(=O)(=O)c3c(C)noc3/C=C/c3c(C)cc(C)cc3C)CC2)cc1 | -5.7% | . | . | . | -0.7 | -12
COc1cc(C2c3c(oc4ccccc4c3=O)C(=O)N2c2nc(C)c(C)s2)ccc1O (stereo unspecified) | -0.7% | . | . | . | -0.3 | -20
Cc1ccc(-c2nc3n(n2)Cc2ccccc2-3)cc1 | -1.4% | 0.3 | -8% | 12%[15.4 µM] | 1.3 | 10
Cc1ccc(NC(=O)Cn2c(=O)n(CCc3ccccc3)c(=O)c3sc4ccccc4c32)cc1C | -9.0% | . | . | . | 0.1 | -1
CC1CCCN(C(C(=O)Nc2ccc3c(c2)OCO3)c2ccccc2)C1 (stereo unspecified) | -0.3% | 5.3 | -3% | 14% | -0.9 | 18
CCCNC(=O)C1CCN(S(=O)(=O)c2ccc(-c3nn[nH]n3)cc2)CC1 | -0.5% | -0.6 | -11% | -24% | -0.1 | -11
O=C(CN1C(=O)CSC1=O)N1CCCC(Nc2ccc(F)cc2)C1 (stereo unspecified) | ? | . | 6% | -57%[inhibitor] | -0.2 | 2
COc1ccc(-c2cc3nccc(-c4cc(Cl)c(C)cc4O)n3n2)cc1 | 30% | . | . | . | 1.5 | 5
COc1ccc(NC(=O)Cc2c(SC)c3ccccc3n2Cc2ccccc2)cc1 | -29% | 5.3 | 4% | -40%[inhibitor] | 1.5 | -6
O=C(COC(=O)Cn1cnc2ccccc21)Nc1ccc(OC(F)F)cc1 | -2.9% | . | 10% | 16% | 2.4 | -5
O=C(CN1C(=O)c2ccccc2S1(=O)=O)Nc1cccnc1 | ? | -0.2 | 7% | -16% | -0.3 | 12
COc1ccc2c(c1)c1c(c(=O)n(-c3cccc(C)c3)c(=O)n1CC(=O)NCCC1=CCCCC1)n2C | 3.8% | . | . | . | 0.0 | 1
O=C(O)c1nn(CC(=O)N2CCN(S(=O)(=O)c3ccc(Cl)cc3)CC2)c(=O)c2ccccc12 | . | 0.8 | 5% | -12%[15.4 µM] | 1.5 | -9
COc1ccc(C2=CC(=O)CC(c3ccc(OC)cc3)C2)cc1 (stereo unspecified) | . | 0.8 | -21% | 9% | -0.6 | -8
CO/N=C/c1ccc(Oc2ccc(C)cc2)c([N+](=O)[O-])c1 | . | -1.9 | . | -14%[15.4 µM] | 0.6 | 25
COc1ccc([N+](=O)[O-])cc1/C=N/Nc1nc(N2CCCCC2)nc(N2CCCCC2)n1 | . | -2.2 | 15% | -9%[15.4 µM] | -0.6 | -1
Cc1n[nH]c(=O)c2c(NC(=O)CSc3ncccn3)oc(C)c12 | -2.5% | . | 0% | 39%[15.4 µM] | 0.0 | -16
Cc1cn2c(=O)cc(COc3cccc(NC(=O)c4ccccc4C)c3)nc2s1 | -5.0% | . | . | . | -0.5 | -2
Cc1sc2nc3n(c(=O)c2c1C)CCCS3 | -0.7% | 1.0 | 3% | 24% | -0.7 | 0
O=C(/C=C/c1cccc(F)c1)OCC(=O)N1CCCc2ccccc21 | . | . | -1% | 62%[15.4 µM] | 1.2 | 4
Cn1cccc1-c1nc2ccc([N+](=O)[O-])cc2[nH]1 | . | 0.9 | 2% | 6%[15.4 µM] | 1.2 | -5
Cn1c(=O)oc2cc(S(=O)(=O)NCc3ccccc3)ccc21 | -17% | 1.7 | 5% | 4% | 0.7 | 1
CCOC(=O)/C(=C/c1ccco1)NC(=O)c1ccc(Br)o1 | . | -1.3 | -19% | 20%[15.4 µM] | 2.3 | -6
CCOC(=O)C(O)(CC(=O)Nc1ccc(Cl)cc1Cl)C(F)(F)F (stereo unspecified) | 0.3% | 8.5 | 4% | -40% | 0.4 | 27
CCn1cc(/C=C(\NC(=O)c2ccc(OC)c(OC)c2)C(=O)N2CCOCC2)c2ccccc21 | 0.0% | 3.3 | -16% | -67%[inhibitor] | 0.8 | -29
CC(=C\c1ccccc1)/C=C1/SC(=S)N(CCC(=O)O)C1=O | -1.0% | 6.3 | ? | 13% | . | .
COc1ccc(C2=NN(C(=O)c3cccs3)C(c3ccccc3OC)C2)cc1OC (stereo unspecified) | ? | -3.2 | ? | 5% | 2.1 | 9
CCN(CC)CCOC(=O)C1(c2ccc([N+](=O)[O-])cc2)CCCC1 | -0.1% | ? | 7% | . | -0.8 | 5
O=C(Nc1ccc(NC(=O)c2cccs2)cc1)c1cccc(Br)c1 | -17% | . | . | . | -0.2 | -20
CCOC(=O)C1(CCOc2ccccc2)CCN(Cc2ccc(F)c(OC)c2)CC1 | . | -1.0 | -10% | -40% | -0.3 | 12
O=C(Nc1ccccc1Cl)C1CC(=O)N(Cc2ccco2)C1 (stereo unspecified) | -1.4% | . | 13% | -21% | -0.2 | 21
O=S(=O)(Nc1ccc(F)cc1F)c1ccc(Br)s1 | -0.2% | . | . | . | -0.6 | -10
Cc1nn2c(-c3ccc(Cl)cc3Cl)nnc2s1 | 0.9% | -1.3 | -1% | -49%[inhibitor] | -0.9 | 11

Reprinted at random: four entries already listed, in no set order.
mol | ClpP mod | Menin-MLL FL inh | gsp antagonist | gsp agonist | TRPML1 ag | TRPML1 inh
Cn1c(=O)oc2cc(S(=O)(=O)NCc3ccccc3)ccc21 | -17% | 1.7 | 5% | 4% | 0.7 | 1
Cc1sc2nc3n(c(=O)c2c1C)CCCS3 | -0.7% | 1.0 | 3% | 24% | -0.7 | 0
O=C(Nc1ccc(NC(=O)c2cccs2)cc1)c1cccc(Br)c1 | -17% | . | . | . | -0.2 | -20
Cc1nn2c(-c3ccc(Cl)cc3Cl)nnc2s1 | 0.9% | -1.3 | -1% | -49%[inhibitor] | -0.9 | 11

Further entries.
mol | ClpP mod | Menin-MLL FL inh | gsp antagonist | gsp agonist | TRPML1 ag | TRPML1 inh
Cc1ccc(-c2nn(-c3ccccc3Cl)cc2C(=O)NCC2CCCO2)cc1 (stereo unspecified) | -3.5% | . | -3% | -55%[inhibitor] | -0.2 | 40
CCC(=O)Nc1ccc2c(c1)nc(CN1CCCCC1)n2C | -5.4% | 0.4 | 4% | -52%[inhibitor] | 0.4 | -6
Cc1ccc(CCN2CC(C(=O)NCCCN3CCCCC3)CC2=O)cc1 (stereo unspecified) | -3.7% | 1.1 | 12% | -47%[inhibitor] | 0.4 | 11
CC(=O)NC1C(=O)N(CCc2ccccc2)c2ccccc21 (stereo unspecified) | 0.1% | 1.7 | -4% | 10% | -0.1 | 1
O=C1N2CN(C(c3ccccc3)c3ccccc3)CN=C2SC1(CO)CO | -1.2% | -2.1 | 13% | 14% | 1.0 | 11
O=C1Nc2ccc(S(=O)(=O)N(CCO)CCO)c3cccc1c23 | 1.3% | ? | 6% | -5%[15.4 µM] | -0.2 | 6
